gsp antagonist = antagonizes gsp, the McCune-Albright syndrome mutation | AID 624288 | gsp-mutant cells, cAMP HTRF, 30 min; control for the full effect not named in the record | Potency, µM (doses to about 76.9 µM), inactives show at the top dose activity change, negative = inhibition, most hits filed as inhibitors | 0.4% of 340,000 active; active = falling curve of any shape with a large fitted effect; inconclusive = falling curve, mostly with a smaller effect; inactive = flat or rising curve; cell line not stated here;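 also: intracellular cAMP measured with PDE inhibitor Ro 20-1724 present during compound exposure; potency is read from the fitted curve at half-maximal effect; % is scaled to controls: 0 for no effect and ±100 for the full control effect; nearly all actives have a fitted effect of over 65% in size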
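G418-selected cells were plated in DMEM/10% FBS for 16-24 h at 37C, then treated with compounds plus the PDE inhibitor […] (300 uM solution added) for 30 min at 37C. Intracellular cAMP was measured by HTRF after 30 min lysis at room temperature.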
gsp ag = gsp mutant agonism; AID 624287; 0.13% of 340,000 active; gsp mutant cells, cAMP HTRF, 30 min; control for the full effect not named in the record; Potency, µM (titrated, usually from 76.9 µM), for inactives: top-dose activation (cAMP increase), actives largely listed as activators; active = well fitted activation curve with a large enough effect; inconclusive = small, poorly fitted or top-dose-only effect, or another doubt; inactive = no such curve, though single readings can be large or run the other way; cell line not stated here;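 also: phosphodiesterase inhibitor Ro 20-1724 added with compounds to block cAMP breakdown; potency is read from the fitted curve at half-maximal effect; nearly all actives have a fitted effect of over 60% in size; about a fifth of the inactives were tested at one dose only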
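Cells in DMEM/10% FBS with G418 were pretreated with compounds in DMSO plus […] (300 uM stock) for 30 min at 37C. cAMP was measured by HTRF (cAMP-d2 plus anti-cAMP antibody-K) after 30 min at room temperature.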
Sfp inh = inhibitors of Bacillus subtilis Sfp phosphopantetheinyl transferase; Q9F4F7; Biochemical Sfp PPTase activity, qHTS; Potency, µM, without a hit: max response, negative = inhibition, usual class: inhibitors; 3.5% of 310,000 active; AID 1490; active = well fitted inhibition curve with a large enough effect; inconclusive = small, poorly fitted or top-dose-only effect, or another doubt; inactive = no such curve, though single readings can be large or run the other way;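 also: the enzyme is Sfp with the accession as filed and its product quenches rhodamine fluorescence; potency is read from the fitted curve at half-maximal effect; 0% = enzyme reaction without inhibitor and -100% = no enzyme wells; top concentration of the series not given in the record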
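Reaction rates are the 30-min fluorescence difference (ex 525, em 598 nm) in wells containing 15 nM Sfp, 5 uM rhodamine-CoA and 12.5 uM BHQ-2-YbbR at pH 7.6 with 10 mM MgCl2.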
ClpP mod = qHTS Assay for Activators of ClpP; ATP-dependent Clp protease proteolytic subunit (Bacillus subtilis (strain 168)), P80244; purified B. subtilis ClpP, FRET peptide cleavage, 20 min; Potency, µM (titrated, usually from 57.5 µM), inactives show top-dose activity change, negative = active; 1.9% of 340,000 active; active = well fitted falling curve with a large enough effect; inconclusive = small, poorly fitted or top-dose-only effect; inactive = no such curve, though single readings can be large or run the other way; also: potency is read from the fitted curve at half-maximal effect; the source files actives as falling curves though it sought activators and does not explain the sign; nearly all actives have a fitted effect of over 65% in size; many hits overshoot -100%
Target sequence (P80244 whole entry, looked up): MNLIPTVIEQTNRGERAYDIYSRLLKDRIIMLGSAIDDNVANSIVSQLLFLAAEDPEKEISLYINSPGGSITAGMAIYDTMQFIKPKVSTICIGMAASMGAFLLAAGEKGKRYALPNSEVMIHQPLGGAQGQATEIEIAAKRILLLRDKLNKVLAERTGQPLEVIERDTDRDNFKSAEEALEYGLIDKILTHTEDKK
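Buffer: 100 mM Tris/HCl pH8, 100 mM KCl, 0.05% low protease BSA, 2.5% glycerol, 0.01% Tween-20. ClpP 10 microg/mL final; 20 min RT; delta FRET normalized to ADEP and DMSO controls.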
TRPML1 inh = blocks the human TRPML1 channel; TRPML1-inducible cells, Ca2+ dye fluorescence, FDSS; hits give low values; inhibition of EC80 agonist-evoked calcium signal; activity change, negative = inhibition, % (test concentration not listed); 0.02% of 390,000 active; AID 624415; in the data active means activity change below about -50%; inconclusive means about -30% to -50%; inactive means above about -30%;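 also: stimulus is agonist 54-4 at its EC80 concentration; % is scaled to controls: 0 for no effect and ±100 for the full control effect; compound concentration not given in the record; the text of the record puts the active cut at -80%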
Target sequence (Q9GZU1 whole entry, looked up): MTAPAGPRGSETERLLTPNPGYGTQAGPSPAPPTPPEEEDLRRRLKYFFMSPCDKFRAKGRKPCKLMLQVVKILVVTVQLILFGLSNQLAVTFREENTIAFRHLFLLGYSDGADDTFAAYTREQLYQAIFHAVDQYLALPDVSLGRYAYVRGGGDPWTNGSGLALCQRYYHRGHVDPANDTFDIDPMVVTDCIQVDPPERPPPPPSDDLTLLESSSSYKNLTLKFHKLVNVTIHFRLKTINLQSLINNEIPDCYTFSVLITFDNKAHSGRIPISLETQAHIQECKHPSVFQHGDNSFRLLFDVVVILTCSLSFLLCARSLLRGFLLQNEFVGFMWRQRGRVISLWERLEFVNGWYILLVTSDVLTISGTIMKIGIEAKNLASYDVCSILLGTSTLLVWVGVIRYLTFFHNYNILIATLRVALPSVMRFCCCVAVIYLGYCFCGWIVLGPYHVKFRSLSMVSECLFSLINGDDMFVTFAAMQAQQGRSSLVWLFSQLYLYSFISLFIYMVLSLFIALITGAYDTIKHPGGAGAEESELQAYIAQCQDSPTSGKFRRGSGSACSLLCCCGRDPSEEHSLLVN
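TRPML1-DL cells, Tet-induced overnight (~16 h, 37 °C) at 1,500 cells/well, were loaded with Ca8 no-wash dye plus quencher for 45-90 min at room temperature. Compounds were pinned during FDSS kinetic reading; agonist 54-4 at EC80 (4 uM final) then added.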
Menin-MLL FL inh = menin-MLL binding inhibition, fluorescein peptide. Fluorescence polarization, fluorescein-MLL peptide displacement from menin. FP activity change, % at 61.4 µM. 290,000 tested, under 10 active; inconclusive = falling polarisation curve, or a change in total fluorescence; inactive = total fluorescence flat and polarisation flat or rising; no compound was filed as active; the % refers to the polarisation; negative = inhibition;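 also: % of control where 0% means no effect; inhibitors lower the polarisation; unlabelled MLL peptide was the positive control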
TRPV1 potentiator = potentiators of human vanilloid receptor 1 (TRPV1); potentiation, % at 8.33 µM; 0.02% of 320,000 active; AID 540277; TRPV1-expressing cells, Fluo-8 calcium influx, capsaicin EC20 potentiation; host cell line not named in the record; control for the full effect not named in the record; active means potentiation above 80%; inconclusive means 30% to 80%; inactive means below 30%; also: 0% is about no effect
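TRPV1-expressing cells were cultured overnight at 35.5C and loaded with Fluo-8 calcium dye for 40 to 90 min at room temperature. After a 10 s baseline, compound was added and calcium influx was read kinetically for 3 min (ex 480/em 520 nm).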
* hit, by the source's call; ? = inconclusive; · = no result given; & = joins results of further samples; [ ] = another dose, or the depositor's remark.

canonical_smiles,gsp antagonist,gsp ag,Sfp inh,ClpP mod,TRPML1 inh,Menin-MLL FL inh,TRPV1 potentiator
O=C1/C(=N\S(=O)(=O)c2cccs2)C([n+]2ccc(CCCc3ccccc3)cc2)=C([O-])c2ccccc21,-5.0%,12.7%[15.4 µM],-10.4%,-10.3%,19.1,-18.8,0.4
COc1ccc(/C=N/Nc2cc(OC)ncn2)cc1,-9.3%,27.0%,26.4%,-8.0%,-15.5,7.3,-7.9
CCN(CC)C(NC(=O)c1ccccc1)C(=O)c1ccccc1 (stereo not given),5.4%,-43.5%[inhibitor],17.7%,-0.3%,-8.4,3.5,-3.8
CNC(=S)N1C2CCCC1CC(NC(=O)c1ccc(F)cc1)C2 (stereo not given),3.5%,-41.1%[inhibitor],15.9%,-1.6%,·,-1.0,-2.2
CC(C)CC(NC(=O)OCc1ccccc1)C(=O)NC(Cc1ccccc1)C(=O)CCl (stereo not given),0.1%,-15.5%,·,-0.8%,-3.2,·,·
COc1ccc(CCN2CC(C(=O)N(C)Cc3ccc4nsnc4c3)CCC2=O)cc1 (stereo not given),-4.6%,-33.9%[inhibitor],22.0%,-2.6%,13.5,-2.9,-4.4
O=C(Cc1ccc(NC(=O)C2CCCN(C(=O)C3CCCCC3)C2)cc1)Nc1cccc(C(=O)N2CCCCC2)c1 (stereo not given),-2.0%,·,·,2.4%,-19.3,·,·
COc1ccc(NC(=O)N(C)C[C@H]2Oc3ccc(NC(=O)Nc4c(C)noc4C)cc3C(=O)N([C@H](C)CO)C[C@@H]2C)cc1,5.6%,·,·,-0.6%,-7.3,·,·
CCOc1ccc(-c2nnc(N)o2)cc1,4.2%,5.7%,11.0%,?,55.2,5.2,6.7
CCOc1ccc(S(=O)(=O)N2CCN(C(=O)c3ccc(-n4cncn4)c([N+](=O)[O-])c3)CC2)cc1,-0.1%,-28.8%,·,-0.5%,-0.5,·,-4.2
Cc1ccc(C)c2c1c1ccccc1n2C,4.4%,2.8%[15.4 µM],4.7%,·,31.2,0.6,·
O=C(COC(=O)C12CC3CC(CC(O)(C3)C1)C2)Nc1ccc(OC(F)F)cc1,-14.5%,12.8%,·,-4.2%,20.6,·,-5.2
CCN1CCN(C(=O)c2cc3c(=O)n(C)c4ccccc4c3n2C)CC1,2.0%,5.2%,4.1%,-19.0%,1.2,0.7,-0.6
CC(OC(=O)/C=C/c1ccccc1)C(=O)Nc1ccc2c(c1)OCCO2 (stereo not given),-12.1%,0.9%,·,3.2%,13.8,·,-16.4
CC(=O)Nc1ccc(S(=O)(=O)N(C)CC(=O)Nc2ccc(Br)cc2F)cc1,4.7%,2.6%,·,-3.7%,-7.4,·,2.5
COc1ccc(NC(=O)c2cn(CCC#N)nc2-c2cccs2)cc1,-2.6%,?,13.0%,2.4%,9.3,7.3,12.5
CC1=NN(C(=O)CCc2ccccc2O)C(O)(C(F)(F)F)C1 (stereo not given),21.0%,-32.3%[inhibitor],3.8%,-6.3%,-5.6,4.2,-0.2
N#Cc1cn(CC(=O)NCCc2c[nH]c3ccccc23)c2ccccc12,-12.9%,-4.1%,4.5%,-2.3%,-5.6,1.6,9.6
N#Cc1ccc(C23CC4(C2)[C@H](CN(Cc2ccc(-c5ccccc5)cc2)[C@@H]4c2ccccc2)C3c2ccc(Cl)nc2)cc1 (stereo not given in full),1.0%,·,2.4%&-4.6%,-1.0%,-2.9,6.0&8.7,0.6
O=C(CNC(=O)c1cccs1)NCC(=O)OCc1ccc(Cl)cc1,2.4%,8.9%,0.4%,-10.2%,2.4,1.5,12.1
Cc1ccc(NC(=O)COC(=O)COc2ccc(Cl)cc2)c([N+](=O)[O-])c1,10.3%,?,5.5%,1.8%,-14.6,-0.3,-2.3
CCN(CC)S(=O)(=O)c1ccc(OC)c(NC(=O)c2ccc(-n3cncn3)c([N+](=O)[O-])c2)c1,1.9%,37.7%,·,1.1%,19.3,·,9.2
CN(CC(=O)Nc1cc(Cl)ccc1-n1cncn1)Cc1ccccc1N1CCOCC1,·,-47.4%[inhibitor],·,0.0%,1.2,·,·
CCC1(CC)C(=O)NC(=O)NC1=Nc1ccccc1,9.0%,-22.6%,3.0%,·,-1.9,0.9,-5.4
CCCCc1c(C)nn(-c2nnc3c4ccccc4n(C)c3n2)c1C,-10.2%,-9.8%,6.7%,-1.2%,-22.6,3.5,8.5
Clc1ccc(CN2C3=NCCCN3c3ccccc32)cc1Cl,13.3%,2.6%,13.2%,·,5.6,-1.1,-6.6
CCN(CC)S(=O)(=O)c1ccc(S(=O)(=O)N(CC(=O)Nc2ccccc2)Cc2ccco2)cc1,-15.9%,-0.6%,-16.4%,0.8%,-9.7,2.1,-7.3
CCN(CC)S(=O)(=O)c1ccc(OC)c(NC(=O)/C=C/c2ccco2)c1,-22.9%,5.0%,25.1µM*,1.9%,·,21.3,-5.7
COc1cc(C#N)ccc1OCC(=O)Nc1cccc(S(=O)(=O)N(C)c2ccccc2)c1,·,-1.5%,·,0.0%,7.6,·,·
CCC(CC)NC(=O)CCCSc1nc2ccccc2[nH]1,3.3%,-7.3%[15.4 µM],-1.2%,·,7.1,1.7,6.6
CC(NC(=O)COC(=O)c1ccc2c(c1)S(=O)(=O)N=C1CCCCCN12)C12CC3CC(CC(C3)C1)C2 (stereo not given),14.8%,-2.9%,17.3%,0.5%,-1.6,3.7,12.4
Cc1nn(C)c(Oc2cccc(C(F)(F)F)c2)c1C#N,6.2%,-12.6%,6.6%,·,-7.1,0.2,12.6
C[C@H]1CN([C@@H](C)CO)C(=O)CCCn2nncc2CO[C@@H]1CN(C)C(=O)NC1CCCCC1,·,-2.7%,·,1.9%,3.8,·,·
CC1(C)CC(=O)C(C(C2=C(O)CC(C)(C)CC2=O)c2ccco2)C(=O)C1 (stereo not given),-8.0%,-11.7%,?,-6.7%,-1.3,?,10.9
Cc1ccc(C(=O)NC2CCN(C(=O)Nc3ccccc3Cl)CC2)cc1,-22.3%,-1.7%[15.4 µM],10.0%,0.7%,-8.8,·,-13.7
O=c1[nH][nH]c(-c2ccccc2O)c1C(C[N+](=O)[O-])c1ccccc1 (stereo not given),-14.6%,-39.6%[inhibitor],2.4%,3.2%,-13.7,5.7,23.8
Cc1ccc(-c2nnc(SCC(=O)N/N=C/c3ccc(C)s3)n2-c2ccc(C)cc2)cc1,?,-32.2%,-2.8%,-1.2%,-15.9,-3.4,8.2
OC(CNCC1CCCO1)Cn1c2ccc(Cl)cc2c2cc(Cl)ccc21 (stereo not given),18.7%,-2.5%,50.1µM*,-5.2%,-8.8,1.8,4.2
CCCN1C(=O)C2(SC(NC(C)=O)=NN2C(C)=O)c2cc(C)ccc21 (stereo not given),11.3%,-4.4%[15.4 µM],13.6%,·,6.7,-2.2,1.6
COc1ccccc1N=NC1=C(O)CC(C)(C)CC1=O,0.8%,8.1%[15.4 µM],4.8%,·,-2.2,4.1,-7.5

Overlap with the part before: 2 entries, then new ones.
canonical_smiles,gsp antagonist,gsp ag,Sfp inh,ClpP mod,TRPML1 inh,Menin-MLL FL inh,TRPV1 potentiator
CCCN1C(=O)C2(SC(NC(C)=O)=NN2C(C)=O)c2cc(C)ccc21 (stereo not given),11.3%,-4.4%[15.4 µM],13.6%,·,6.7,-2.2,1.6
COc1ccccc1N=NC1=C(O)CC(C)(C)CC1=O,0.8%,8.1%[15.4 µM],4.8%,·,-2.2,4.1,-7.5
O=C(CSc1nncn1-c1ccccc1)c1c[nH]c2ccccc12,-2.4%,8.3%,14.2%,·,-14.0,0.6,-0.7
CNS(=O)(=O)c1cccc(C(=O)OCC(=O)/C=C2/N(C)c3ccccc3C2(C)C)c1,?,21.3%,3.7%,-19.5%,3.8,7.9,0.7
Cc1cc(C)nc(Nc2n[nH]c(-c3ccc(N)cc3)n2)n1,11.9%,-1.4%,11.5%,1.2%,7.7,2.1,-2.0
Cc1cc(C)c(NC(=O)c2ccc[n+](Cc3ccc([N+](=O)[O-])cc3)c2)c(C)c1,9.2%,27.1%[15.4 µM],12.2%,-17.9%,-1.3,0.6,1.9
CCOCCCNC(=O)c1c(N)n(-c2ccc3c(c2)OCO3)c2nc3ccccc3nc12,-4.6%,-2.4%[15.4 µM],4.2%,-4.4%,-9.5,-0.5,-9.4
O=C(O)c1cc(-c2ccco2)nn1-c1ccc(Cl)cc1,-21.8%,-3.6%[15.4 µM],15.8µM*,3.3%,-3.6,?,15.1
Cc1cc(C(C)(C)C)cc(S(=O)(=O)NCC(=O)O)c1C,0.6%,-0.4%,12.7%,-9.8%,41.4,-1.0,-2.2
O=c1c2ccccc2sc2nc(CCl)nn12,4.6%,-11.4%,·,15.8µM*,2.5,·,·
C[C@H](CO)N1C[C@H](C)[C@@H](CN(C)C(=O)NC2CCCCC2)Oc2c(NC(=O)Nc3ccc4c(c3)OCO4)cccc2C1=O,-12.7%,·,·,-1.9%,7.6,·,·
CN1CCN(C(CNC(=O)C(=O)Nc2ccc3c(c2)OCCO3)c2ccc(F)cc2)CC1 (stereo not given),10.4%,1.5%[15.4 µM],·,·,-13.8,·,7.2
CCCCn1nc2cc(C(=O)NCc3cc(C(F)(F)F)cc(C(F)(F)F)c3)ccc2c1OC,6.5%,·,14.7%,4.2%,7.7,1.7,?

Bioassay records: PubChem, National Center for Advancing Translational Sciences (NCATS)
